Rango release inh: inhibition of RanGTP-driven Rango-importin beta dissociation. O95149+P62826. AID 540253. Potency, µM (doses to about 46.1 µM), without a hit: at the highest dose activity change, negative = inhibition. 340,000 tested, 0.071% active. Biochemical FRET Rango-importin beta, RanGTP-induced dissociation; active means falling FRET ratio curve, often poorly fitted, with flat reads before Ran was added; inconclusive means other falling curves, or compound fluorescence or quenching; inactive means flat or rising ratio curve;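 further: potency means the concentration at half of the fitted maximal effect; % of control where 0% means no effect; nearly all actives have a fitted effect of over 45% in size; -100% = wells without RanGTP and RCC1; the record marks most hits as doubtful in a second field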
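Two FRET readings bracket the reaction: one 5 min after compound meets Rango–importin beta, another 45 min after RanGTP-RCC1 (0.6 uM Ran, 0.2 uM RCC1, 2 mM GTP) is added. Only the second defines inhibition.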
GLA inh pH 4.5: alpha-galactosidase A (human) inhibition, pH 4.5. P06280. purified enzyme, 4-MU-alpha-Gal fluorescence, pH 4.5. activity change, negative = inhibition, % at 105 µM. 230,000 tested, under 10 active; inconclusive = small, poorly fitted or top-dose-only inhibition, or a rising curve; inactive = flat fitted curve, though single readings scatter; no compound was filed as active;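 further: 0% = full activity with enzyme and -100% = basal without enzyme; dose as in the result columns while the protocol names 77 µM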
Target sequence (P06280 whole entry, looked up): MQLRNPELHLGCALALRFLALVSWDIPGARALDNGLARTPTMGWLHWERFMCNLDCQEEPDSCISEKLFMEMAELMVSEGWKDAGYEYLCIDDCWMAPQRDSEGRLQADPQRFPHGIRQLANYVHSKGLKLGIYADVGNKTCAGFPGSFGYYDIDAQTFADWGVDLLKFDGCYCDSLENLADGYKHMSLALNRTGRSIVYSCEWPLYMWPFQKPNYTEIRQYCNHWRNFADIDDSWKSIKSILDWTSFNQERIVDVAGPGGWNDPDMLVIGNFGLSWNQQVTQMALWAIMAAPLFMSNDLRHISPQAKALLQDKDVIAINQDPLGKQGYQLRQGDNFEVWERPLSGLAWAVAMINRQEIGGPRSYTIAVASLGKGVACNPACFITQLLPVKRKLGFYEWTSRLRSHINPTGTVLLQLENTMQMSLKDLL
Rango complex inh: inhibitors of Rango-importin beta complex formation; 340,000 tested, 0.031% active; AID 540263; Q14974; Rango CFP/YFP FRET sensor + importin beta, 45 min; Potency, µM (titrated, usually from 92.2 µM), for inactives: top-dose inhibition of complex formation; active = rising FRET ratio curve, often small or poorly fitted; inconclusive = mostly compound fluorescence or quenching in the first reads; inactive = flat curves in all reads;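 further: potency means the concentration at half of the fitted maximal effect; 0% = DMSO wells and 100% = buffer wells lacking importin beta; nearly all actives have a fitted effect of over 15% in size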
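Inhibition scored from the CFP 486 nm/YFP 530 nm FRET ratio 45 min after adding 0.125 microM importin beta to 50 nM Rango biosensor preincubated 5 min with compound (room temperature, PBS with DTT, Tween-20, BSA). No-importin wells as positive control.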
miR-21 reporter: miR-21 reporter, rising signal; HeLa miR-21 FLuc reporter, luciferase, 48 h; Potency, µM (highest dose often 38.3 µM), for the others: at the highest dose reporter change, positive = more light; 340,000 tested, under 10 active; AID 2288; active = well fitted rising curve with a large enough effect; inconclusive = small, poorly fitted or top-dose-only effect; inactive = no such curve, though single readings can be large or run the other way;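 further: % of control where 0% means no effect; miR-21 action dims this reporter so a rising signal means less miR-21 action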
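Luminescence from a firefly luciferase reporter carrying a miR-21 binding site downstream, stably expressed under a CMV promoter in HeLa cells that make miR-21 endogenously, reports miRNA modulation after 48 h compound exposure up to approximately 40uM final.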
* marks the source's active call; other numbers are inactive results; ? = inconclusive; / = no result given.

SMILES	Rango release inh	GLA inh pH 4.5	Rango complex inh	miR-21 reporter
Cc1ccc(CNC(=O)Cn2cc(C(F)(F)F)ccc2=O)cc1	-18%	0	?	-19%
N#C/C(=C\c1ccc(OCC(N)=O)cc1)C(=O)NC1CC1	4%	/	-3.3%	-4%
O=C(CCN1C(=O)C2CCCCC2C1=O)Nc1cc(F)ccc1F (stereo not given)	-13%	/	4.9%	1%
CCN(CC)CCCNC1CCS(=O)(=O)C1 (stereo not given)	-10%	2	-4.3%	-4%
CC(C)c1ccc(C(=O)N(c2ccccn2)C(C)c2ccco2)cc1 (stereo not given)	13%	-8	5.4%	-45%
Cc1cccc2c(N)c3c(nc12)N(C)CC3	0%	/	3.2%	12%
COc1ccc(C[C@H]2CN3C(=NC[C@@H]3Cc3ccccc3)N2C[C@H](C)NC(=O)CCC2CCCCC2)cc1	/	-4	/	29%
C/C(=N\N=C1\NC(=O)CC(C(=O)O)S1)c1cccs1 (stereo not given)	6%	-1	1.9%	0%
Cc1ccc(-n2ncc3c(=O)n(CC(=O)N4CCN(c5ccccc5)CC4)cnc32)cc1C	1%	2	1.6%	-4%
Clc1ccc(OCc2nn[nH]n2)cc1	17%	/	7.0%	-5%
NC(=O)NOCc1ccccc1F	1%	2	1.7%	-5%
Cn1ncc([N+](=O)[O-])c1C(=O)n1nnc2ccccc21	23%	-14	2.3%	3%
CCOC(=O)c1c(Nc2ccccc2)sc(/C=C2\C=Nc3ccccc32)c1O	?	2	?	-18%
Clc1cccc(-c2ccc(C=Nc3ccc(N4CCOCC4)cc3)o2)c1Cl	-6%	9	1.4%	-5%
O=C(c1cccs1)N1CCN(S(=O)(=O)c2cccs2)CC1	6%	-9	-2.0%	-1%
CC1CN(C(=O)COc2ccc3c(-c4ccccc4)cc(=O)oc3c2)CC(C)O1 (stereo not given)	-6%	/	?	/
CCOC(=O)CN(C(=O)CSc1nnc(C)n1-c1ccccc1)c1ccccc1	2%	2	0.2%	-1%
O=C(NC(=S)NCCN1CCOCC1)c1ccccc1Cl	10%	-7	-3.6%	-5%
Cc1cc(C(=O)NCCC(c2ccccc2)c2ccccc2)c(C)o1	3%	-9	2.8%	-19%
CC(=O)NC(Cc1ccccc1)c1ccc2c(c1)OCCCO2 (stereo not given)	28%	4	-2.0%	-21%
Cc1ccc(NC(=O)N2CCCC2C(=O)Nc2nnc(C(C)C)s2)cc1 (stereo not given)	-5%	/	2.7%	5%
CN(C)C(=O)c1cc(C(=O)c2ccc(Cl)cc2Cl)c[nH]1	11%	/	0.3%	-33%
CN1CCN(c2ccc(CNC(=O)c3ccc4c(c3)OCCO4)cc2)CC1	1%	-27	0.0%	-21%
CCc1nn2c(=O)cc(COc3ccc(/C=C4\C(=N)N5N=C(CC(C)C)SC5=NC4=O)cc3)nc2s1	4%	6	-2.5%	2%
Cc1ccc(S(=O)(=O)n2c([N+](=O)[O-])cnc2C)c(C)c1C	4%	-7	4.5%	2%
(continued)
SMILES	Rango release inh	GLA inh pH 4.5	Rango complex inh	miR-21 reporter
CCOc1ccc(C(=O)NCC(=O)OCCCOC(=O)CNC(=O)c2ccc(OCC)cc2)cc1	0%	/	-1.1%	-2%
COc1cccc(C(=O)Nc2ccc(NC(=O)Cc3ccccc3)cc2)c1	19%	/	-1.6%	-25%
COc1cccc(OC)c1OCCCOc1ccc(C)cc1Br	-2%	-9	2.9%	-8%
COc1cccc(-c2ccc3ncnc(NCc4cccc(C)c4)c3c2)c1	1%	/	-4.1%	/
O=C(c1cccs1)N1CCCC(c2nc3c(nnn3Cc3c(Cl)cccc3Cl)c(=O)[nH]2)C1 (stereo not given)	10%	/	2.2%	-9%
c1ccc(CCN=C2CCCc3c2[nH]c2ccccc32)cc1	-6%	-11	-0.7%	-6%
O=C(CSc1nnc(Nc2ccccc2F)s1)NCC1CCCO1 (stereo not given)	1%	/	3.4%	/
Cc1nc(-c2ccccc2)nc(-c2ccccc2)n1	4%	/	5.6%	/
Cc1ccc(S(=O)(=O)NC2CCC(C(=O)O)CC2)cc1 (stereo not given)	9%	0	1.4%	-7%
Cc1cc(Br)ccc1NC(=O)c1ccc(-n2cncn2)c([N+](=O)[O-])c1	8%	/	-0.1%	/
CCN(CC(=O)NCCCN1CCOCC1)S(=O)(=O)c1cc(Cl)ccc1Cl	0%	/	-1.9%	-2%
C/C(CC(=O)NCc1ccco1)=N\NC(=O)CC#N	11%	9	-1.1%	-2%
O=C(NNc1ccc(Cl)cc1)c1cccs1	1%	-9	-0.7%	14%
O=C(CSc1ccc2nnc(CCNC(=O)c3ccccc3)n2n1)NC1CCCC1	-4%	/	0.7%	10%
COc1cccc(-c2nc3ccccc3s2)c1	-10%	-8	-2.8%	-38%
CCOC(=O)C1=C(COC(=O)COc2ccccc2C#N)NC(=O)NC1C (stereo not given)	-1%	/	-6.0%	/
O=C(NCCc1c[nH]c2ccccc12)/C(=C/c1cccnc1)NC(=O)c1cccs1	?	9	-0.2%	-1%
COc1ccccc1CCC(=O)Nc1cc(S(=O)(=O)N2CCOCC2)ccc1N1CCCC1	-14%	/	-1.0%	/
CCCCOC(=O)c1ccc(NC(=S)N2CCN(c3ncc4c(=O)c(C(=O)O)cn(CC)c4n3)CC2)cc1	20%	-6	-4.2%	-7%
Cc1nnc(SCC(=O)Nc2ccccc2)c2ccccc12	1%	/	?	-16%
CCOC(=O)c1c(C)[nH]c(C)c1C(=O)CSc1nnc(-c2ccco2)n1Cc1ccccc1	1%	-14	0.9%	-1%
Cc1cc(=O)oc2cc(NC(=O)c3cccc(F)c3)ccc12	1%	/	2.1%	-20%
Nc1n[nH]c2c1C1(CCCCC1)Cc1ccccc1-2	1%	1	0.0%	4%
COc1ccc(CNC(=O)C2CCCN2S(=O)(=O)c2ccc(S(=O)(=O)N(C)C)cc2)cc1 (stereo not given)	6%	7	-5.1%	-10%
O=C(NCCCl)Nc1cccnc1Cl	-9%	-1	-0.1%	0%
(listing goes on)
SMILES	Rango release inh	GLA inh pH 4.5	Rango complex inh	miR-21 reporter
CS(=O)(=O)N1CCC(C(=O)Nc2ccc(F)cc2F)CC1	5%	-11	0.1%	-10%
Cc1cccc(NCN2C(=O)c3ccncc3C2=O)n1	4%	1	-0.3%	-4%
COc1ccc(CCN(C)C(=O)C2CCN(Cc3ccccc3)CC2)cc1OC	-10%	7	-4.7%	0%
O=C(NCc1ccccc1)C1=C[C@@H](c2ccccc2)C[C@@H](OCCCCO)O1	-12%	/	0.5%	/
C=CCOc1ccc(C(=O)Nc2ccccc2C(=O)N2CCCC2)cc1	-6%	/	0.5%	-12%
O=C(c1cc2ccccc2oc1=O)N1CCOCC1	6%	10	-1.6%	-63%
CCOC(=O)Cn1c(S(=O)(=O)Cc2ccc(F)cc2)nc(-c2ccccc2)c1-c1ccccc1	4%	-15	?	19%
O=C(NC(=S)N1CCN(c2ccc([N+](=O)[O-])cc2)CC1)c1ccccc1Cl	-12%	4	2.2%	19%
COCC(C)n1c(=O)sc2ccccc2c1=O (stereo not given)	-6%	-2	-2.9%	-1%
COC(=O)c1ccc(CN2CCC(n3nccc3NC(=O)C3CCCC3)CC2)cc1	-9%	/	-0.2%	5%
Cc1c(C)n(C(=O)CSc2ncn[nH]2)c2ccccc12	-10%	-12	2.3%	0%
O=C(NCc1n[nH]c(=S)n1-c1ccc(Br)cc1)c1ccc(S(=O)(=O)N2CCCCC2)cc1	3%	/	-1.9%	-9%
CCN(C(=O)COc1cc(=O)n(CC)c2ccccc12)c1cccc(Cl)c1	0%	-7	-2.5%	7%
COc1cc(NC(=O)CCC(=O)O)nc(OC)n1	4%	-1	1.8%	0%
COC(=O)c1cccc(NC(=O)COC(=O)CSc2nc(C)cc(C)n2)c1	4%	3	-3.2%	-2%
Cc1ccc(S(=O)(=O)N2CCN(CC(=O)N/N=C\C(Cl)=C\c3ccccc3)CC2)cc1	-19%	-10	-3.3%	-4%
CCN(C[C@H]1N[C@@](CC)(C(=O)OC)[C@H]2C(=O)N(C)C(=O)[C@@H]12)C(=O)Nc1ccc(F)cc1	-19%	/	4.3%	/
CC1(C)CC(=O)N(Cc2ccccc2)C(=O)C1	1%	4	2.0%	-1%
O=C(Cn1[nH]c(=O)c2ccccc2c1=O)Nc1ccc(-c2nnc3n2CCCCC3)cc1	0%	4	0.5%	7%
CCC1(C)Cc2ccccc2-c2nc(NN)[nH]c(=O)c21 (stereo not given)	1%	/	2.5%	8%
CCN1CCN(S(=O)(=O)c2ccc(Cl)c(C(=O)N(C)CC(=O)Nc3c(C)cccc3C)c2)CC1	8%	/	-3.1%	/
C#CCOCCOCCOCCNc1nc(N2CCN(C(=O)Cn3cc(CCO)nn3)CC2)nc(N2CCN(C(=O)[C@H](C)n3cc(CCCN=C(N)N)nn3)CC2)n1	10%	/	-0.3%	/
O=C(O)/C(=C\c1cccc(F)c1)c1ccc(S(=O)(=O)N2CCCC2)s1	-4%	/	0.5%	/
C[C@H](CO)N1C[C@H](C)[C@@H](CN(C)C(=O)NC2CCCCC2)Oc2c(NC(=O)C3CCCCC3)cccc2C1=O	-6%	/	0.8%	/
CN(C)CCOc1cccc(Cl)c1	9%	-7	-0.1%	-6%

Part of the list above, as a markdown table.
| compound | Rango release inh | GLA inh pH 4.5 | Rango complex inh | miR-21 reporter |
| --- | --- | --- | --- | --- |
| CS(=O)(=O)N1CCC(C(=O)Nc2ccc(F)cc2F)CC1 | 5% | -11 | 0.1% | -10% |
| Cc1cccc(NCN2C(=O)c3ccncc3C2=O)n1 | 4% | 1 | -0.3% | -4% |
| COc1ccc(CCN(C)C(=O)C2CCN(Cc3ccccc3)CC2)cc1OC | -10% | 7 | -4.7% | 0% |
| O=C(NCc1ccccc1)C1=C[C@@H](c2ccccc2)C[C@@H](OCCCCO)O1 | -12% | / | 0.5% | / |
| C=CCOc1ccc(C(=O)Nc2ccccc2C(=O)N2CCCC2)cc1 | -6% | / | 0.5% | -12% |
| O=C(c1cc2ccccc2oc1=O)N1CCOCC1 | 6% | 10 | -1.6% | -63% |
| CCOC(=O)Cn1c(S(=O)(=O)Cc2ccc(F)cc2)nc(-c2ccccc2)c1-c1ccccc1 | 4% | -15 | ? | 19% |
| O=C(NC(=S)N1CCN(c2ccc([N+](=O)[O-])cc2)CC1)c1ccccc1Cl | -12% | 4 | 2.2% | 19% |
| COCC(C)n1c(=O)sc2ccccc2c1=O (stereo not given) | -6% | -2 | -2.9% | -1% |
| COC(=O)c1ccc(CN2CCC(n3nccc3NC(=O)C3CCCC3)CC2)cc1 | -9% | / | -0.2% | 5% |
| Cc1c(C)n(C(=O)CSc2ncn[nH]2)c2ccccc12 | -10% | -12 | 2.3% | 0% |
| O=C(NCc1n[nH]c(=S)n1-c1ccc(Br)cc1)c1ccc(S(=O)(=O)N2CCCCC2)cc1 | 3% | / | -1.9% | -9% |
| CCN(C(=O)COc1cc(=O)n(CC)c2ccccc12)c1cccc(Cl)c1 | 0% | -7 | -2.5% | 7% |

Next structures follow.
SMILES	Rango release inh	GLA inh pH 4.5	Rango complex inh	miR-21 reporter
COc1ccc(NC(=O)c2cccnc2SC)cc1S(=O)(=O)N1CCCCC1	-8%	0	1.3%	-5%
O=C(CN1CCCSc2ccccc21)N1CCN(S(=O)(=O)c2cccc(F)c2)CC1	12%	/	2.9%	/
O=C(COC(=O)Cc1ccsc1)Nc1ccc(Cl)cc1F	-3%	/	-1.0%	/
COc1ccc(-n2c(COc3cccc(C)c3)nnc2SCC(=O)NCc2ccco2)cc1	-10%	-20	0.4%	-4%
CS(=O)(=O)N1CCC(C(=O)N2CCc3ccccc3C2)CC1	-17%	6	1.4%	-5%
CCOC(=O)c1ccc(NC(=O)c2ccccc2N(C)S(=O)(=O)c2ccccc2)cc1	-2%	-22	-0.7%	10%
COc1ccc(COC(=O)Nc2cn(C)nc2C(F)(F)F)cc1	?	-7	-0.6%	0%
O=C1CN(C(=O)COC(=O)c2ccccc2Br)c2ccccc2N1	8%	/	1.6%	/
CC(=O)n1nc(-c2cccc(C)c2)nc1SCC(=O)Nc1ccccc1	1%	6	-0.3%	-5%
COC(=O)CC(NS(=O)(=O)c1cccs1)c1cccc2ccccc12 (stereo not given)	18%	-1	4.4%	-5%
COc1ccc(/C=C2\CCCc3c2nc2ccccc2c3C(=O)OCC(=O)c2c(N)n(C)c(=O)n(C)c2=O)cc1	/	-3	/	0%

From PubChem

These rows are one share of the data; the hit share may differ from the screen's.
